Screening results (PubChem BioAssay)
Vaccinia mCherry: qHTS for Stage-Specific Inhibitors of Vaccinia Orthopoxvirus: mCherry Reporter Primary qHTS; Vaccinia virus mCherry reporter infection, fluorescence; about a quarter of the inactives have no number; AID 720579, 2013; actives 0.63% (n = 310,000); Potency, µM (top dose mostly 36.5 µM), without a hit: at the highest dose activity change, negative = inhibition, hits mostly inhibitors; active = well fitted inhibition curve with a large enough effect; inconclusive = small, poorly fitted or top-dose-only effect; inactive = no such curve, though single readings can be large or run the other way; tested in A549 cells; further: nearly all actives have a fitted effect of over 35% in size; inactives centre near -10
VACV Venus inh: qHTS for Stage-Specific Inhibitors of Vaccinia Orthopoxvirus: Venus Reporter Primary qHTS. Vaccinia virus Venus reporter expression, fluorescence. Potency, µM (series often up to 36.5 µM), for inactives: top-dose activity change, negative = inhibition, actives largely listed as inhibitors. actives 0.46% (n = 330,000); active means well fitted inhibition curve with a large enough effect; inconclusive means small, poorly fitted or top-dose-only effect; inactive means no such curve, though single readings can be large or run the other way; tested in A549 cells; further: nearly all actives have a fitted effect of over 30% in size; inactives centre near -10
Starred values were filed as active, the others as inactive; i = inactive; ? = inconclusive; · = no result given; [ ] = another dose, or the depositor's remark. On the % scale 0 is the no-effect control and ±100 the full control effect; potency means the concentration at half of the fitted maximal effect.

SMILES | Vaccinia mCherry | VACV Venus inh
CC1(C)CC(NC(=O)c2cc(S(=O)(=O)N3CCOCC3)c(Cl)cc2Cl)CC(C)(C)N1 | i | -18%
COc1cc(S(=O)(=O)Nc2ncn[nH]2)ccc1Cl | -2% | 2%
CC(=O)c1ccc(NC(=O)/C(=C\c2ccccc2)NC(=O)/C=C/c2ccccc2)cc1 | -17% | -7%
Cn1c(-c2ccccc2)cnc1SCC(=O)NCc1ccco1 | -6% | -4%
C[C@H]1CN([C@@H](C)CO)C(=O)CCCn2cc(nn2)CO[C@@H]1CN(C)C(=O)c1cc(-c2ccccc2)on1 | -7% | -11%
O=C(CSc1ccc2ccccc2n1)NCc1ccc2c(c1)OCO2 | 0% | 3%
COc1ccc(NC(=O)C(c2ccccc2)N(C)C(=O)CNC(C)=O)cc1 (stereo not drawn) | -14% | -15%
CCCCNC(=O)C1c2cc(OC)c(OC)cc2C(=O)N(C)C1c1cccs1 (stereo not drawn) | -15% | -18%
COc1cccc(-c2nnc(SCC(=O)N3CCCc4ccccc43)o2)c1 | · | -15%
Cc1ccc(S(=O)(=O)Oc2ccc(/C=N/NC(=O)c3cccnc3)cc2)cc1 | ? | 5%
Cc1ccc(CC(=O)NC(C)CCc2ccccc2)cc1 (stereo not drawn) | -12% | -3%
O=C(CN1CCc2ccccc2C1)Nc1cccc(S(=O)(=O)N2CCCC2)c1 | i | 2%
CCN(CC(=O)NCc1ccc(Cl)cc1)C(=O)/C=C/c1cc(OC)c(OC)c(OC)c1 | i | -2%
Cc1ccc2nc(NC(=O)C3CCCN(S(=O)(=O)c4cnc[nH]4)C3)sc2c1 (stereo not drawn) | -10% | -13%
COc1ccc(C(=O)c2oc3ccccc3c2NC(=O)c2ccc(F)cc2)cc1 | -20% | -12%
CCOC(=O)c1c(NC(=O)c2ccc(S(=O)(=O)N(CCOC)CCOC)cc2)sc2c1CC(C)(C)NC2(C)C | -9% | -22%
CCOC(=O)C1(Cc2ccccc2)CCN(Cc2csc(C(C)=O)c2)CC1 | -3% | -13%
CCCOc1ccc(C(=O)NNC(=S)NC(=O)c2cc(-c3ccc(Cl)cc3)nc3ccccc23)cc1 | -20% | -12%
CCCn1c(SCC(=O)Nc2ccccc2N2CCCCC2)nc2c1c(=O)n(C)c(=O)n2C | -29% | -18%
O=C(CSc1nc(C(F)(F)F)cc(=O)[nH]1)Nc1ccc2c(c1)OCCO2 | -9% | -9%
CCCC(=O)NNc1cc(=O)c2c(=O)n(C)c(=O)n(C)c2[nH]1 | -14% | -9%
CCc1noc(C)c1C(=O)Nc1cc(Cl)ccc1N1CCOCC1 | -19% | -2%
CCOc1ccc(N(CC(=O)NCc2ccccc2)C(=O)Cn2nnc(-c3ccc(C)o3)n2)cc1 | 7% | -3%
CC1(C(=O)NS(=O)(=O)c2cccs2)CCN1C(=O)C1CC1 (stereo not drawn) | 2% | -6%
O=C(O)CNC(=O)c1ccc(OC(F)F)cc1 | -19% | -4%

The listing continues:
SMILES | Vaccinia mCherry | VACV Venus inh
O=C(O)CNC(=S)N(Cc1ccccc1Cl)C1CCCC1 | -2% | -10%
c1ccc(-c2csc(N3CCCCCC3)n2)cc1 | i | -18%
O=C(CSc1ccc(F)cc1)NC(=O)NCc1ccccc1 | -12% | 0%
CCCCN(CC)CCCNC(=O)Cn1nc(CC)n2c(cc3sccc32)c1=O | -11% | -11%
Cc1[nH]n(-c2ccccc2)c(=O)c1/C=N/NC(=O)c1ccoc1C | ? | ?
O=C(CSc1ccc(-c2ccc(Cl)cc2)nn1)Nc1ccc2c(c1)OCCO2 | i | -17%
Cc1cc(N2CCN(c3cccc(C)c3C)CC2)n2cnnc2n1 | -21% | -25%
O=C(CCN1C(=O)c2ccccc2S1(=O)=O)N1CCN(c2ccccc2F)CC1 | ? | 4%
COc1ccc(C(=O)c2ccc(Br)cc2)cc1 | -17% | -9%
c1csc(C2=NC(c3ccncc3)=Nc3ccccc3N2)c1 | -17% | -21%
Cc1nc2cc(NC(=O)Nc3ccc(Br)cc3)ccc2o1 | i | -5%
O=C(Nc1ccc(N2CCN(CCOc3ccc(Cl)cc3)CC2)c(C(=O)O)c1)c1ccc(F)cc1 | 2% | -5%
Cc1ccc(CNC(=O)CCc2nc(-c3cccs3)no2)cc1 | -21% | -16%
O=C(C[C@H]1C/C=C\C[C@H](Cc2ccc(F)cc2)C(=O)OC[C@@H]2CCCN2C1=O)N[C@H](CO)Cc1ccccc1 | i | -16%
COc1ccc(-n2c(SCC(=O)N3CCCC(C)C3)nnc2-c2cccnc2)cc1 (stereo not drawn) | -2% | -16%
COc1ccc2c(c1)c(=O)c(S(=O)(=O)c1ccc(C)cc1)cn2Cc1ccccc1C | -1% | 2%
Nc1ccccc1N=Nc1ccccc1N | -23% | -27%
c1ccc2nc3c(cc2c1)CCCC3 | i | 7%
Cc1cc(=O)n(CC(=O)N2CCCc3ccccc32)c2c1c(C)nn2-c1cccc(F)c1 | -23% | -17%
O=C1CC(c2ccccc2)=NN1c1nc(-c2ccccc2)cs1 | -15% | -8%
CCSCCOC(=O)C1=C(C)NC(=O)NC1c1ccc2c(c1)OCO2 (stereo not drawn) | -20% | -12%
Cc1cc(C(=O)Nc2ccncc2)ccc1[N+](=O)[O-] | -15% | -7%
COc1ccc(-n2c(SCc3nc(-c4ccc(Cl)cc4)no3)nnc2-c2ccncc2)cc1 | -1% | 0%
CC(=O)c1cc2c(cc1NC(=O)Cn1nc(-c3ccc(F)cc3)ccc1=O)OCO2 | 2% | -2%
CC(Sc1nc(=O)cc(N)n1CCc1ccccc1)C(=O)NCc1ccccc1 (stereo not drawn) | 11% | 1%

Whole records from above:
`Cc1cc(C(=O)Nc2ccncc2)ccc1[N+](=O)[O-]` across the screens: Vaccinia mCherry = -15%; VACV Venus inh = -7%
`COc1ccc(-n2c(SCc3nc(-c4ccc(Cl)cc4)no3)nnc2-c2ccncc2)cc1` across the screens: Vaccinia mCherry = -1%; VACV Venus inh = 0%

Carrying on:
SMILES | Vaccinia mCherry | VACV Venus inh
CCNC(=O)C1CCCN(c2nnc(C)c3c(C)n(-c4ccc(C)cc4)nc23)C1 (stereo not drawn) | -18% | -15%
CC1=C(C(=O)OCC(C)C)C(c2ccccc2Cl)NC(=O)N1C (stereo not drawn) | -33% | -24%
O=c1c2c3c(sc2n(Cc2ccccc2F)c(=O)n1-c1ccc(Cl)cc1)CCCC3 | -9% | -1%
COC(=O)c1c(NC(=O)c2cc(OC)c(OC)c(OC)c2Br)sc2c1CCC(C)C2 (stereo not drawn) | -10% | -4%
CN(C)c1ccc(/C=C/c2cncc3ccccc23)cc1 | -8% | -7%
CCC(C)NCCOc1ccc(C(C)(C)c2ccccc2)cc1 (stereo not drawn) | -18% | -19%
CCOC(=O)C1=C(C)NC(C)=C(C(=O)OCC)C1C(=O)OCC(=O)NC1(C#N)CCCCC1 | -10% | -19%
O=C(CCN1C(=O)c2ccccc2C1=O)N1CCCCCC1 | · | ?
Cc1ccc(NC(=O)c2cc(NC(=O)CCCC(=O)O)ccc2Cl)cc1Cl | -14% | -16%
COc1ccc(NS(=O)(=O)c2ccc3c(c2)NC(=O)CC(=O)N3)cc1OC | -11% | 3%
CCC1Sc2ccccc2N(CC(=O)NCc2ccc(C)cc2)C1=O (stereo not drawn) | -2% | 0%
CCn1nnnc1-c1ccc(OC)c(S(=O)(=O)Nc2ccc(OC)cc2)c1 | i | -13%
COc1ccccc1-n1ccnc1SCC(=O)NCc1ccco1 | -7% | 0%
CCCCn1cnc2cc(NCc3ccc(OCC)cc3)ccc21 | -22% | -14%
Cc1ccc(N=Nc2[nH]c3ccccc3c2O)cc1 | -4% | 4%
Fc1ccc(C2=NC(c3cccc(C(F)(F)F)c3)=Nc3ccccc3N2)cc1 | 1% | 1%
Cc1cc2oc(C(=O)Nc3ccc(S(=O)(=O)N4CCCC(C)C4)cc3)cc(=O)c2cc1Cl (stereo not drawn) | 11% | -12%
O=C1C(C=Nc2ccc(F)cc2)=C(O)c2ccccc21 | -3% | -2%
O=C(Nc1nc(-c2ccc(Oc3ccccc3)cc2)cs1)C1=COCCO1 | -14% | -22%
COc1ccccc1-n1c(-c2ccccc2)nc2ccccc2c1=O | i | -7%
COc1cccc(C(=O)CC2(O)C(=O)N(Cc3ccccc3)c3ccccc32)c1 (stereo not drawn) | -10%[7.34 µM] | -6%[7.34 µM]
COc1ccccc1NCC(=O)N/N=C/c1cccnc1 | -13% | -3%
COc1ccc(C2C3=C(CC(C)(C)CC3=O)OC(N)=C2[N+](=O)[O-])cc1 (stereo not drawn) | i | -9%
CC(C)OCCCn1c(SCc2cccc(Br)c2)nc2c(sc3ccccc32)c1=O | -4% | -2%
O=C(NCC1CCCO1)c1ccc2c(=O)n(-c3ccccc3)c(=S)[nH]c2c1 (stereo not drawn) | i | -3%

Next compounds
SMILES | Vaccinia mCherry | VACV Venus inh
COCCn1c(=NC(=O)/C=C/c2ccccc2Cl)sc2cc(NC(C)=O)ccc21 | -12% | -10%
Nc1sc(-c2ccccc2)cc1C(=O)NCCN1CCOCC1 | ? | -10%
Cc1cccc(NC(=O)NCC2CC2)c1 | i | -13%
O=S(=O)(NCc1cccnc1)c1cccn1-c1ncc(C(F)(F)F)cc1Cl | -8% | -14%
COc1cc(NC(=O)CCn2c(=S)oc3ccccc32)cc(OC)c1OC | i | -18%
O=C(c1cccnc1)N1N=C(c2cccs2)CC1c1ccc(F)cc1 (stereo not drawn) | -11% | -4%
COc1ccc(OCc2nn3c(-c4cccc(OC)c4)nnc3s2)cc1 | · | -10%
N#CC1=C(N)Oc2cc(N)ccc2C1c1ccccc1 (stereo not drawn) | ? | -20%
O=C(CNC(=O)c1ccc(N2C(=O)c3ccccc3C2=O)cc1)OCC(=O)c1cccc2ccccc12 | -13% | -5%
Cc1nnc(NC(=O)CSc2nnc(CC(=O)Nc3ccccc3C)n2C)s1 | i | 0%
Cc1ccccc1CN1CCCN(CC(=O)Nc2c(C)cccc2C)S1(=O)=O | -7% | 2%
Cc1ccc(N(CC(=O)N/N=C/c2ccc(OC3CSC3)cc2)S(=O)(=O)c2ccccc2)c(C)c1 | -22% | -26%
COc1cc(OC)cc(C(=O)N/N=C\c2ccoc2)c1 | ? | -28%
FC(F)(F)c1cc(N2CCN(Cc3ccccc3)CC2)c2ccccc2n1 | i | -13%
O=C(CSc1oc(-c2ccco2)nc1S(=O)(=O)c1ccc(Cl)cc1)c1ccc(Cl)cc1 | -9% | -5%
CCOc1ccc(Br)cc1S(=O)(=O)N1CCC(C(=O)O)CC1 | -7% | 5%
CCN(CC)S(=O)(=O)c1ccc2c(c1)N(CC(=O)Nc1ccc(NC(C)=O)cc1)C(=O)CO2 | -14% | -11%
CCOC(=O)C1=C(CN2c3ccccc3CC2C)NC(=O)NC1c1ccccc1 (stereo not drawn) | ? | -23%
NC(=O)CCCn1c(C(=O)c2ccc(Cl)cc2)c2ccc([N+](=O)[O-])cc2[n+]1[O-] | ? | ?
COC(=O)c1cn(NC(=O)c2ccccc2[N+](=O)[O-])c(=O)c2ccccc12 | -20% | -27%
COc1cc(S(=O)(=O)N2CCOCC2)ccc1F | -11% | -3%
CC1(C)CC[C@]2(C(=O)O)CC[C@@]3(C)C(=CCC4[C@@]5(C)CCC(O)C(C)(C)C5CC[C@@]43C)C2C1 (stereo partly drawn) | -5% | -7%
COC(=O)c1ccc(-n2c(C)cc(/C=N/n3cnnc3)c2C)cc1 | -8% | -12%
CC(=O)Nc1cccc(NC(=S)Nc2ccc(F)cc2F)c1 | i | 4%
COc1ccc(NC(=O)CN2C(=O)NC(C)(c3ccccc3)C2=O)c(OC)c1 (stereo not drawn) | i | -9%

(list continues)
SMILES | Vaccinia mCherry | VACV Venus inh
O=[N+]([O-])c1ccc(-c2nc3ccc([N+](=O)[O-])cc3[nH]2)cc1 | -21% | ?
Cc1cccc(OCC(=O)NC(=S)Nc2ccccc2N2CCOCC2)c1C | -9% | -14%
Cc1ccccc1NC(=O)C1CCCN1/C=C/C(=O)C(F)(F)F (stereo not drawn) | -8% | -5%
C[C@H](CO)N1C[C@H](C)[C@@H](CN(C)Cc2cccnc2)Oc2ncc(-c3cccc(C#N)c3)cc2C1=O | i | -5%
CN(C)S(=O)(=O)c1cccc(NC(=O)C(c2ccccc2)c2ccccc2)c1 | -10% | 0%
CC(C)Cn1nc(C(=O)NCc2ccccc2CN2CCCC2)c2ccccc2c1=O | -12% | -21%
Cc1nnc(N2CCCC(C(=O)NCc3ccccc3)C2)c2nn(-c3ccccc3)c(C)c12 (stereo not drawn) | -20% | -18%
COC(=O)[C@@H]1[C@H]2SC(C)(C)[C@H](C(=O)OC)N2C(=O)N1Cc1cc2ccccc2n1S(=O)(=O)c1ccccc1 | i | -18%
NC(=O)c1ccccc1NC(=O)CC1(CC(=O)O)CCCC1 | 22% | 4%
O=C(Oc1oc(-c2ccco2)nc1C=Nc1ccc(Cl)cc1)c1ccco1 | · | -20%

Four entries from above, set out differently.
> O=C(Oc1oc(-c2ccco2)nc1C=Nc1ccc(Cl)cc1)c1ccco1
  Vaccinia mCherry: ·	VACV Venus inh: -20%

> Cc1nnc(N2CCCC(C(=O)NCc3ccccc3)C2)c2nn(-c3ccccc3)c(C)c12 (stereo not drawn)
  Vaccinia mCherry: -20%	VACV Venus inh: -18%

> Cc1ccccc1NC(=O)C1CCCN1/C=C/C(=O)C(F)(F)F (stereo not drawn)
  Vaccinia mCherry: -8%	VACV Venus inh: -5%

> COC(=O)[C@@H]1[C@H]2SC(C)(C)[C@H](C(=O)OC)N2C(=O)N1Cc1cc2ccccc2n1S(=O)(=O)c1ccccc1
  Vaccinia mCherry: i	VACV Venus inh: -18%
